High-throughput results (PubChem)
TRPML1 ag – agonists of human TRPML1 channel | Q9GZU1 | TRPML1-expressing cells, Ca2+ dye fluorescence, FDSS; host cell line not named in the record; reference of the full effect not given here | activation, % (test concentration not listed) | 410,000 compounds, 0.12% hits; in the data active = activation above about 50%; inconclusive = about 30% to 50%; inactive = below about 30%; further: 0% is about no effect; the text of the record puts the active cut at 80%
Target sequence (Q9GZU1 whole entry, looked up): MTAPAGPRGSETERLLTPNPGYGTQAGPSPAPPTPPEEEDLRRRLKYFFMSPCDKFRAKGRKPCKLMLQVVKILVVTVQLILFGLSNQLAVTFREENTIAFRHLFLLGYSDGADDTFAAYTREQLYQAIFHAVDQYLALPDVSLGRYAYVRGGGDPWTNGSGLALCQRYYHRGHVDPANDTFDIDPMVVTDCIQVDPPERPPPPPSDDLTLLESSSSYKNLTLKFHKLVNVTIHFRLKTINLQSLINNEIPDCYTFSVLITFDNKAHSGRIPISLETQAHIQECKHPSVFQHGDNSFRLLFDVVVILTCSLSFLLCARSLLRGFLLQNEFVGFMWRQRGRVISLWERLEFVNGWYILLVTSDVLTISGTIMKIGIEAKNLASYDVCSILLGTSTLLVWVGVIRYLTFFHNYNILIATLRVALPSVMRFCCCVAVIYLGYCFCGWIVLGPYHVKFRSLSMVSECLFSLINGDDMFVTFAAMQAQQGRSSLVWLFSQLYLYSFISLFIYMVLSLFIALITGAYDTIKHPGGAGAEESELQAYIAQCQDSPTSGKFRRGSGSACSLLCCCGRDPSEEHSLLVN
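Cells: TRPML1-DL, 1X Tet inducer, ~16 h at 37 degrees C/5% CO2. Dye: ABD Ca8 no-wash + quencher, 45-90 min RT. Read: 10 s baseline, compound add, 110 s agonist phase; 54-4 EC80 (4uM final), 110 s antagonist phase.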
PINK1 modulator – modulators of PINK1 expression; PINK1 immunofluorescence, high-content cytometry, 24 h; Potency, µM (doses to about 76.6 µM), for inactives: at the top dose activation (PINK1 increase), hits mostly activators; 410,000 compounds, 0.2% hits; AID 624263; active = well fitted activation curve with a large enough effect; inconclusive = small, poorly fitted or top-dose-only effect; inactive = flat fitted curve, though single readings scatter; cell line not stated here;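 further: potency means the concentration at half of the fitted maximal effect; % of control where 0% means no effect; nearly all actives have a fitted effect of over 65% in size; a mitochondrial uncoupler was the plate control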
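Decision-based qHTS: stable cells, 24 h exposure to five compound concentrations, CCCP as control. Fixed cells stained for PINK1 plus nuclear, mitochondrial and cell markers, cytometer read.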
The depositor's hits bear a star; ? = inconclusive; & = joins results of further samples; [ ] = another dose, or the depositor's remark. The list is partial; the hit share may differ from the screen's.

SMILES	TRPML1 ag	PINK1 modulator
Cc1cccc(-c2nnc(SC(C)C(=O)Nc3ccccc3)n2C)c1 (stereo not given)	-1.0	0.0%
COc1cc2nc(N3CCCN(C)CC3)nc(NC3CCCCC3)c2cc1OC	-0.2	4.7%
COc1ccccc1C(O)c1nccn1Cc1ccccc1 (stereo not given)	-0.4	-1.1%
O=S(=O)(c1ccc(F)cc1)N1CCN(c2nc(-c3ccccc3)nc3ccccc23)CC1	-0.1	0.1%
COc1cc2c(NC3CCN(C)CC3)nc(N3CCCN(C)CC3)nc2cc1OCCCCCC(N)=O	-0.4	0.8%
Clc1ccc2c(Cl)cc[n+](CCC3CCCCC3)c2c1	-0.5	0.6%
COc1cc(N(C)C)c(OC)cc1/C=C1\Cc2ccccc2C1=O	78.2*	15.4%
CCOc1cc(C2Nc3ccccc3C(=O)N2Cc2ccco2)ccc1O (stereo not given)	-0.8	0.3%
Cc1cc(=O)[nH]c2nc(N)ccc12	-0.3	-0.6%
O=[N+]([O-])c1ccc(/C=C/c2ccnc3ccccc23)cc1	-0.5	0.0%
Cc1ccc(C=O)cc1Cl	-0.5	1.3%
CCN(CC)CCCC(C)Nc1c2ccc(Cl)cc2nc2ccc(OC)cc12 (stereo not given)	16.4	-0.3%
Cc1[nH]c2ccccc2c1C(c1c[nH]c2ccccc12)c1c(C)[nH]c2ccccc12	3.3	0.1%
COc1ccc(C(=O)NCC(=O)OCC(=O)c2ccc3ccccc3c2)cc1	0.1	0.2%
C=C(C(=O)O)c1ccc2ccccc2c1	-0.4	0.2%
O=C(C[n+]1cc(Br)cc(Br)c1)c1ccc2c(c1)CCCC2	-0.9	0.6%
CC(=O)N1CCC(C(=O)Nc2nnc(C(C)C)s2)CC1	-0.4	-0.3%
COc1ccc(C(=O)N(Cc2ccco2)Cc2cccs2)c(OC)c1	-0.3	-0.5%
CC1Cc2ccccc2C[N+]1(C)CC(=O)c1ccc(I)cc1 (stereo not given)	-0.9	0.3%
CC(C)COc1ccc(CC(=O)NO)cc1	-1.0	-0.1%
O=C1c2ccccc2NC(c2ccccc2O)N1Cc1ccco1 (stereo not given)	-0.8	0.9%
CC(C)NS(=O)(=O)c1ccc2[nH]c3nc(SCC(=O)Nc4ccc(F)c(F)c4)nnc3c2c1	0.5	5.9%
Cc1cc(Cl)ccc1Nc1nc(NCc2ccco2)nc2nccnc12	-0.4	0.0%
CNc1nc(N2CCCN(C)CC2)nc2cc(OC)c(OC)cc12	0.0	2.6%
CN(c1ccccc1)c1nc(C#N)nc(N2CCOCC2)n1	-0.8	0.5%
CNc1ccc(C=O)cc1Cl	-0.6	1.8%
O=C1c2ccccc2C(=O)N1c1cccc(O)c1	-0.9	0.0%
S=C(NCCCc1cnc[nH]1)NCCCN(Cc1ccc(Cl)cc1)c1cc(-c2ccccc2)ccn1	-0.4	2.5%
Cc1cccc(OCCC(=O)NO)c1	-0.3	4.2%
C(=C\c1ccnc2ccccc12)/c1ccc(-[n+]2cc[n+](-c3ccc(/C=C/c4ccnc5ccccc45)cc3)cc2)cc1	9.8	0.8%
C=Cc1ccc(N=Cc2ccc(N(C)C)cc2)cc1	-0.4	1.4%
O=C(O)C1=CC(=C(c2ccc(O)c(C(=O)O)c2)c2ccc(O)c(C(=O)O)c2)C=CC1=O	-0.4	-0.5%&-1.2%
COc1ccc(-c2nc3cccc(C)n3c2Nc2ccc(C)cc2)cc1	-0.1	1.6%
O=C(Nc1ccc([N+](=O)[O-])cc1Cl)c1ccccc1O	1.3&1.5	?
Cc1cc(/C=C/c2nc3ccccc3s2)ccc1N(C)C	1.1	0.9%
O=C1CCCc2[nH]c(=O)c(C(=O)NCc3ccccc3)cc21	0.9	1.5%
CCCN1CNc2c(c(=O)[nH]c(=S)n2CCc2ccc(OC)cc2)C1	-0.5	-0.7%
C=CCN(C)CCCCCCOc1ccc(C(=O)c2ccc(Br)cc2)c(F)c1	1.2	11.8%
O=C1c2ccccc2C(=O)N1c1nc(-c2ccc(F)cc2)cs1	-0.9	-0.1%
CN(C)c1ccc(CCc2ccnc3ccccc23)cc1	-0.8	-0.3%

Compound profiles (already shown).
COc1ccc(C(=O)N(Cc2ccco2)Cc2cccs2)c(OC)c1 in the list: TRPML1 ag: -0.3; PINK1 modulator: -0.5%
COc1ccccc1C(O)c1nccn1Cc1ccccc1 (stereo not given) in the list: TRPML1 ag: -0.4; PINK1 modulator: -1.1%

(more compounds)
SMILES	TRPML1 ag	PINK1 modulator
Cc1ccc2oc(-c3ccc(C)c(NC(=O)COc4ccccc4C)c3)nc2c1	0.1	-0.7%
O=C(c1ccco1)N(Cc1cccs1)c1ccc(O)cc1	-0.9	0.0%
O=S(=O)(/N=C(/Sc1ccccc1)c1ccccc1)c1ccc(Cl)cc1	-0.6	1.9%
CC[n+]1ccnc2ccccc21	0.1	-0.3%
CC1(C)CC(=O)C2=C(C1)NC(Nc1nc3ccccc3o1)=NC2c1cccc(O)c1 (stereo not given)	-0.4	0.5%
c1coc(CNc2nc(NCc3ccco3)c3ccccc3n2)c1	?	1.4%
O=C(CNC(=O)c1ccccc1)NCC(=O)OCC(=O)c1ccc2ccccc2c1	-0.6	1.6%
CC1(C)Cc2ccccc2-c2c[nH]c(=O)n21	-0.4	-0.4%
CN(C)c1ccc(N=Nc2ccnc3ccccc23)cc1	-0.6	-0.2%
CCN(CC)c1nc(NC2CCN(C)CC2)c2cc(OC)c(OC)cc2n1	-0.4	-0.9%
C[S+](C)CC(=O)c1ccc2ccccc2c1	-0.1	1.8%
Cc1ccc(S(=O)(=O)N2CCN(c3nc(-c4cccs4)nc4ccccc34)CC2)c(C)c1	-0.4	0.8%
COc1cc2c(NC3CCN(C(C)C)CC3)nc(N3CCCN(C)CC3)nc2cc1OCCCN1CCCC1	0.1	-1.2%
COc1ccc(/C=C/c2ccnc3ccccc23)cc1OC	-0.5	1.6%
ICC[n+]1csc2ccccc21	-0.8	0.8%
CNc1c(Br)cc(/C=C2\C=C(C(O)c3cc(Br)c(NC)c(Br)c3)c3ccccc32)cc1Br (stereo not given)	-0.3	1.4%
Cc1ccc(-c2[nH]ncc2CNCc2ccccc2)cc1	-0.2	0.2%
Cc1ccc2oc(-c3ccc(C)c(NC(=O)COc4ccc(Cl)cc4)c3)nc2c1	-0.4	-0.2%
CC(=O)NC(Cc1ccc([N+](=O)[O-])cc1)C(=O)NCC(N)C(=O)c1ccccc1 (stereo not given)	-0.2	1.2%
O=C(Nc1ccc2ccccc2c1)c1nc(S(=O)(=O)Cc2ccccc2F)ncc1Cl	1.4	2.5%
Cc1cc(N2CCOCC2)nc2ccc(NC(=O)C3CCCCC3)cc12	-0.8	4.9%&1.4%
O=C(O)c1ccc(CNc2ncnc3nc[nH]c23)cc1	-0.1	0.9%
C=C1C=C(C(F)(F)F)n2ncc(C(=O)NCc3ccc(F)cc3)c2N1	-0.7	0.2%
S=Cc1nc2ccccc2[nH]1	-0.7	0.9%
COc1cc(/C=C/c2nc3ccccc3nc2/C=C/c2cc(OC)c(OC)c(OC)c2)cc(OC)c1OC	3.6	2.2%
CC1(C)OC(=O)C2(Cc3cc([N+](=O)[O-])ccc3N3CCCCCC32)C(=O)O1 (stereo not given)	-0.3	-1.1%
C(=Nc1ccc(/C=C/c2ccnc3ccccc23)cc1)c1ccc2c(c1)OCO2	1.7	-0.5%
Cc1ccc2[nH]c(=O)c(CN(CCCO)Cc3nnnn3Cc3ccccc3)cc2c1	0.0	0.2%
C(=Nc1cnc2ccccc2c1)c1ccnc2ccccc12	-0.6	2.4%
CC(=O)NC1CCCC1C#N (stereo not given)	-0.3	-0.3%
S=Cc1ccc(/C=C/c2ccnc3ccccc23)cc1	-0.1	0.7%
O=C(C[n+]1c(Cl)ccc2ccccc21)c1ccc2ccccc2c1	0.2	-1.0%
CC(C)CNc1ncnc2nc[nH]c12	0.0	-1.1%
N#Cc1ccc(NC(=O)COc2ccccc2C(=O)Nc2ccccc2)cc1	0.4	0.0%
O=C(Cc1ccc(OCCC2CCCCC2)cc1)NO	-0.3	2.1%
C/C(=C1/C=Nc2ccccc21)c1ccc(N(C)C)cc1	-0.3	0.8%
CCN(CC)CCN(CC)c1ccc(/C=C/c2ccnc3ccccc23)cc1	4.2	-0.4%
C[n+]1c(/C=C/c2ccc(F)cc2)ccc2ccccc21	-0.6	2.9%
Cc1ccc(S(=O)(=O)N2CCN(S(=O)(=O)c3ccc4c(c3)OCCCO4)CC2)cc1	-0.5	-0.4%
COc1cc(OC)c2c(c1)C(=O)OC2c1cc(OC)c(OC)cc1C (stereo not given)	-1.0	-0.1%

Gathered by group: the compounds so far with a cyano group
SMILES	TRPML1 ag	PINK1 modulator
CN(c1ccccc1)c1nc(C#N)nc(N2CCOCC2)n1	-0.8	0.5%
CC(=O)NC1CCCC1C#N (stereo not given)	-0.3	-0.3%
N#Cc1ccc(NC(=O)COc2ccccc2C(=O)Nc2ccccc2)cc1	0.4	0.0%

(more compounds)
SMILES	TRPML1 ag	PINK1 modulator
O=C(c1cccc2ccccc12)N1CCN(S(=O)(=O)c2ccccc2)CC1	-0.9	1.1%
COc1ccccc1NC(C)C(=O)c1c(C)[nH]c2ccccc12 (stereo not given)	-0.9	1.0%
CS(=O)(=O)c1ccc(C(=O)OCC(=O)N2CCc3ccccc32)cc1[N+](=O)[O-]	-0.8	1.2%
O=C(C[N+]12CN3CN(CN(C3)C1)C2)c1ccc(-c2ccccc2)cc1	-0.3	-0.7%
COc1cc2c(NC3CCN(C)CC3)nc(N3CCCN(C)CC3)nc2cc1OCCCN1CCCCC1	-0.5	-0.9%
CCN(CC)c1nc(C#N)nc(N2CCOCC2)n1	-1.1	1.0%
Cc1nc2ccccc2nc1-c1csc(-c2ccccc2)n1	-0.7	0.9%
Clc1ncc(C#Cc2ccccc2)c2ncncc12	3.9	-0.5%
C1=Cc2ccccc2/C1=C\c1cc[cH-]c1.[Fe+2].c1cc[cH-]c1	-0.7	0.1%
Nc1nc2ncn(COCCO)c2c(=O)[nH]1	0.0	0.5%
CC(=O)Nc1cc([N+](=O)[O-])cc(NC(C)=O)c1NC(C)=O	-0.2	0.9%
CC(C)(C)c1ccc(C(=O)C[n+]2cc(Br)cc(Br)c2)cc1	-0.6	0.9%
CCOC(=O)C(C)Sc1ccc2nnc(-c3ccc(OCC)cc3)n2n1 (stereo not given)	-0.9	1.9%
NC1=NC(=O)/C(=C\c2ccc(-c3ccccc3[N+](=O)[O-])o2)S1	-0.3	2.0%
Cc1cc(C)c2c(/C=C/c3ccc(N(C)C)cc3)ccnc2c1	3.0	0.8%
Cc1ccc(-c2nc3cnccn3c2Nc2ccc(C(C)C)cc2)o1	-0.8	1.5%
O=S(=O)(c1ccc(Br)cc1)N1CCN(c2nc(-c3cccs3)nc3ccccc23)CC1	-0.5	-0.9%
O=C1c2ccccc2C(=O)N1c1nc(-c2ccc(Cl)cc2)cs1	-0.1	0.5%
CCCC1OC2C[C@@H]3[C@H]4CCC5=CC(=O)C=C[C@]5(C)[C@H]4C(O)C[C@]3(C)[C@]2(C(=O)CO)O1 (stereo not given in full)	0.5	1.8%
O=c1[nH]c(SCc2ccccc2)ncc1S(=O)(=O)c1ccccc1	-0.3	0.4%
C(=Nc1ccc2ccccc2n1)c1ccccn1	-0.6	0.6%
C=C1NN(Cc2ccccc2)C(=O)N1c1ccc(OCc2ccccc2)cc1	-0.8	-0.7%
O=C(C[n+]1cccc(Br)c1)c1ccc(O)c(O)c1	-0.3	-0.3%
CC(C)(C)C(=O)Nc1ccc2c(c1)C(=O)C(=O)c1ccccc1-2	1.8	-0.5%
O=[N+]([O-])c1ccc(-c2csc(Nc3ccccc3)n2)cc1	0.3	4.0%
C=CCn1c(SC(C)C#N)nc2ccccc2c1=O (stereo not given)	-1.0	1.6%
COc1ccc(/C=C2\C=Cc3ccccc32)cc1	-0.2	0.8%
O=S(=O)(c1ccc2c(c1)OCCO2)N1CCN(c2nc(-c3ccccc3)nc3ccccc23)CC1	-0.6	1.0%
COc1ccc2c(c1)c(CC(=O)O)c(C)n2Cc1ccc(Cl)cc1	2.5	-0.7%
CC1CCN(CC[S-])CC1.O.O.[Cl][Pt]	-0.1	-0.3%
O=C(O)c1cc(=O)c2c3nc4ccccc4oc-3cc(=O)c2[nH]1	0.4	0.3%
CN(C)c1ccc(/C=C2\C=Cc3ccccc32)c(Cl)c1	-0.2	15.1%
Clc1ccc(/C=C/c2ccc3ccccc3n2)c(Cl)c1	-0.6	1.0%
NC(=O)c1cc[n+](CC2=C(C(=O)O)N3C(=O)[C@@H](NC(=O)[C@@H](c4ccccc4)S(=O)(=O)[O-])[C@H]3SC2)cc1	0.0	-0.3%[153 µM]

A second format for part of the listing above.
| compound | TRPML1 ag | PINK1 modulator |
| --- | --- | --- |
| C(=Nc1ccc2ccccc2n1)c1ccccn1 | -0.6 | 0.6% |
| C=C1NN(Cc2ccccc2)C(=O)N1c1ccc(OCc2ccccc2)cc1 | -0.8 | -0.7% |
| O=C(C[n+]1cccc(Br)c1)c1ccc(O)c(O)c1 | -0.3 | -0.3% |
